Assay outcomes (PubChem BioAssay)
A488 autofl: compound fluoresces in the A488 spectral region; compound autofluorescence, A488 spectral region, dye equivalency; active compounds read high; max dye equivalency, M; 0.1% of 59,000 active; AID 591; active = above 10 nM dye equivalent; inconclusive = 1 to 10 nM; inactive = 1 nM or less; about half of its hits are not listed in these tables;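 also: highest value over a series up to 38 µM; compound alone in buffer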
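Compound autofluorescence was read in 100 mM Tris pH 8.0 after 15 min at room temperature, ex 480 nm/em 540 nm. Intensities were converted to A488 dye-equivalent concentration using an on-plate six-point A488 standard curve.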
TSHR agonist: agonists of human thyroid stimulating hormone receptor. Potency, µM (highest dose often 57.1 µM), for the others: at the highest dose activation, most hits filed as activators. AID 926. 0.48% of 73,000 active. P16473. HEK293-CNG-TSHR cells (CNG channel as cAMP sensor), membrane potential dye, cAMP; active = well fitted activation curve of enough size with the parental cells flat; inconclusive = any curve in the parental cells; inactive = parental cells flat and receptor cells flat or falling; also: potency is read from the fitted curve at half-maximal effect; % of control where 0% means no effect; weak receptor curves with flat parental cells got no call and are not listed
Target sequence (P16473 whole entry, looked up): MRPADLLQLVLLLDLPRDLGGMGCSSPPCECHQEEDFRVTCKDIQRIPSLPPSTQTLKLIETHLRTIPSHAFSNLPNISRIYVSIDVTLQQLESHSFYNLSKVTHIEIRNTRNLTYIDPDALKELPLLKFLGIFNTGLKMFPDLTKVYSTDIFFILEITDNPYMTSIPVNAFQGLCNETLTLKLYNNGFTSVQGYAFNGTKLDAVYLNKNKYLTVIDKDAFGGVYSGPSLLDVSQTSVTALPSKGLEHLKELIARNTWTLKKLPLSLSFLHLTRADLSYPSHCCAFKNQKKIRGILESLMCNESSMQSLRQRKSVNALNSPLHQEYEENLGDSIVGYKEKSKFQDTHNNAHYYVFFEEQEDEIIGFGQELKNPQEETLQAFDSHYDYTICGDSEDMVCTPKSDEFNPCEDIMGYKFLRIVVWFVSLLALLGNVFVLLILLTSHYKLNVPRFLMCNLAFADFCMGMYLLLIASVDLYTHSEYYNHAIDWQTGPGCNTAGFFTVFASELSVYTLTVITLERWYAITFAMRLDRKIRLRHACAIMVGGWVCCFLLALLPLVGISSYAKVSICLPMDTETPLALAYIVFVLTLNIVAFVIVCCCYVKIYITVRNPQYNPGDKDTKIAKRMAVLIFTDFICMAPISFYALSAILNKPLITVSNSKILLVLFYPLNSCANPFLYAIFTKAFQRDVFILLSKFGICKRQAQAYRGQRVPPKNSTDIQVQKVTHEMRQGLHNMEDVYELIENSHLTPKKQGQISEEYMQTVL
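cAMP rise detected as CNG-channel membrane depolarization by fluorescent dye (emission 590 nm), 30 min after compound, following 60 min dye loading containing 100 uM RO 20-1724 at room temperature. Cells: TSHR/CNG HEK 293, with parental CNG HEK 293 as control.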
AID923: qHTS Assay for Allosteric/Competitive Inhibitors of Caspase-1: Spectroscopic Profiling in AFC Spectral Region. compound fluorescence, AFC spectral region (405/520 nm); almost no hit is shown here. Potency, µM (top dose mostly 57.5 µM), inactives show top-dose fluorescence increase, usual class: activators. 1.1% of 75,000 active. AID 923, 2007; active = well fitted activation curve with a large enough effect; inconclusive = small, poorly fitted or top-dose-only effect;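 also: potency is read from the fitted curve at half-maximal effect; 0% is about no effect; scaled to a free AFC standard on each plate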
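Baseline compound fluorescence (AFC region, 405 nm ex/520 nm em) taken from the intercept of kinetic reads with 50 nM caspase-1 and 5 uM Ac-WEHD-AFC; normalized to an on-plate AFC standard curve; compounds titrated up to 57 uM.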
A647 fluor: A647 region autofluorescence; Compound fluorescence, A647 channel (570/671 nm), Tris buffer; 59,000 tested, under 10 active; AID 592; max dye-equivalent concentration, M; active means above 1 µM dye equivalent; inconclusive means 0.1 to 1 µM; inactive means 0.1 µM or less;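 also: values scaled relative to a standard on each plate; highest value over a series up to 38 µM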
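Compound fluorescence was measured in 100 mM Tris buffer, pH 8.0, after 15 min at room temperature, using 570 nm excitation and 671 nm emission filters. Signal was normalized to a per-plate Alexa 647 standard curve and expressed as dye-equivalent concentration at each compound concentration.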
Resorufin fluor: compounds fluorescent in resorufin spectral region. Compound fluorescence, resorufin region 547/598 nm, buffer; active compounds read high. max dye-equivalent concentration, M. 0.04% of 59,000 active; active = above 10 nM dye equivalent; inconclusive = 1 to 10 nM; inactive = 1 nM or less; a few of its hits are not listed in these tables; also: highest value over a series up to 38 µM
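Dye-equivalent concentration values derive from comparing each well's 547/598 nm fluorescence against resorufin standards included on every plate. Incubation was 15 min at room temperature in 100 mM Tris, pH 8.0.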
Numbers without * were called inactive; i = inactive; ? = inconclusive; · = not tested or not shown; & = joins results of further samples; [ ] = remark or other dose.

Results follow in this order: TSHR agonist	AID923	Resorufin fluor	A488 autofl	A647 fluor
#1 Cc1ccc(S(=O)(=O)N2CCCC2C(=O)NC2CCCCC2)cc1 (centres undefined)
 : 3%	-0.4%	i	i	2.9e-08
#2 CCOC(=O)N1CCN(C(=O)c2cc3cc(Br)ccc3oc2=O)CC1
 : 0%	4.0%	·	·	·
#3 Cc1cc(C)n(S(=O)(=O)c2cc(C)c(C)cc2C)n1
 : ?	-2.4%	i	i	1.7e-08
#4 Cc1ccccc1CNc1nc(N)n(-c2ccccc2)n1
 : -4%	1.7%	·	·	·
#5 Cn1c(=O)c2c3c(sc2n2c(SCC(=O)c4ccccc4)nnc12)COC(C)(C)C3
 : ·	·	i	i	4.8e-08
#6 c1ccc(Nc2ncncc2-c2ccc3c(c2)OCO3)cc1
 : ?	1.8%	i	i	4.5e-08
#7 Cc1n[nH]c(C)c1S(=O)(=O)N1CCCCCC1
 : -5%	-0.3%	i	i	1.6e-08
#8 CCNC(=O)C(C)Sc1ccc(Cl)cc1 (centres undefined)
 : ?	0.5%	i	i	2.6e-08
#9 CCN1CCN(CCCNC(=O)c2csc3c2CCCCC3)CC1
 : 10%[11.4 µM]	-0.5%	i	i	2.6e-08
#10 Cc1cccc(CCNC(=O)C2CCCN(S(=O)(=O)c3cccc4nsnc34)C2)c1 (centres undefined)
 : 2%[11.4 µM]	0.7%	i	i	4.3e-08
#11 COC(=O)Cc1[nH]nc2c1C(C1C=CCCC1)C(C#N)=C(N)O2 (centres undefined)
 : -2%	1.9%	i	i	9.5e-09
#12 CCN(CC)CCCNC1CCS(=O)(=O)C1 (centres undefined)
 : -1%	3.3%	i	i	6e-08
#13 CCn1c(CNc2ccc(F)cc2)nnc1SCC(=O)OC1CCCCC1
 : 4%	0.3%	i	i	1e-09
#14 CCCCOc1cccc(C(=O)N(Cc2cccs2)C2CCS(=O)(=O)C2)c1 (centres undefined)
 : ?	0.3%	i	i	1e-09
#15 c1ccc(OCc2nn3c(Cn4cnc5ccccc54)nnc3s2)cc1
 : 14%	0.8%	i	i	3.2e-08
#16 COc1ccc(C(c2nnnn2Cc2ccccc2)N2CCN(C(=O)c3ccco3)CC2)cc1 (centres undefined)
 : ?	0.5%	i	i	1.8e-09
#17 CCC1CCCCN1C(=O)Cn1c(=O)oc2ccccc21 (centres undefined)
 : 2%	-1.0%	i	i	3e-08
#18 Cc1cc(C)n2nc(CCc3nc4nc(C)cc(C)n4n3)nc2n1
 : -5%[11.4 µM]	-0.2%	i	i	5.2e-09
#19 O=C(COC(=O)c1ccco1)Nc1ccc2c(c1)OCO2
 : -1%	6.8%	i	i	1.5e-09
#20 COC(=O)c1c(NC(=O)CCc2ccc(C)o2)sc(C)c1C
 : ?	0.3%	i	i	2.7e-09
#21 CCOCC(=O)N1CCc2ccccc21
 : -1%	6.2%	i	i	7.8e-09
#22 CCCN(CCC)CCNC(=O)CS(=O)Cc1nc(-c2ccc(C)cc2)oc1C (centres undefined)
 : -1%[11.4 µM]	0.5%	i	i	3e-08
#23 CN(C)Cc1ccc(O)c(CCc2ccccc2)n1
 : 0%	0.1%	i	i	1.9e-09
#24 CCOC(=O)CC1=C(C#N)C(c2cccnc2)C(C(=O)OCC)=C(N)O1 (centres undefined)
 : 2%	-0.2%	i	i	5e-09
#25 CCOC(=O)N1CCN(C(=O)Nc2ccccc2Cl)CC1
 : -1%	-2.7%	i	i	1.1e-08
#26 O=C(CSc1nnc(CNc2ccc(F)cc2)n1Cc1ccco1)NC1CC1
 : -1%	-0.1%	i	i	7.7e-09
#27 COc1cc(NC(=O)c2cc3c(C)nc4ccccc4c3o2)cc(OC)c1OC
 : -4%	2.0%	·	·	·
#28 CCOc1ccc(N2C(=O)c3cccnc3C2Nc2ccc(F)cc2)cc1 (centres undefined)
 : 13%	-0.6%	i	i	2.8e-08
#29 CCc1c(C(=O)Nc2cc(C)ccc2OC)[nH]c(C)c1C(C)=O
 : 16%	-0.4%	i	i	1.3e-09
#30 COC(=O)C1=C(C)N(c2ccc(C(=O)OC)cc2)C(=O)C1
 : -2%	0.0%	i	i	1.6e-08
#31 CCn1c(SCC(=O)Nc2ccccc2N2CCCCC2)nc2c1c(=O)n(C)c(=O)n2C
 : ?	-0.5%	i	i	1e-09
#32 c1ccc2c(c1)CCN(CCCNc1nc3ccccc3n3cnnc13)C2
 : -4%	0.3%	·	·	·
#33 O=C(Cn1nnc(-c2ccccc2NC(=O)c2cccs2)n1)Nc1ccccc1
 : 4%	0.0%	i	i	4.3e-08
#34 CC1CC(=O)c2cnc(NCc3ccco3)nc2C1 (centres undefined)
 : -3%	1.4%	i	i	1.6e-08
#35 COc1ccccc1NC(=O)CCC(=O)O
 : -4%	-1.0%	i	i	1.9e-08
#36 CS(=O)(=O)N1CCC(C(=O)N2CCc3ccccc3C2)CC1
 : -1%	-1.0%	i	i	1.9e-08
#37 COc1ccc(-n2c(COc3cccc(C)c3)nnc2SCC(=O)NCc2ccco2)cc1
 : 24%	-2.0%	i	i	1e-09
#38 CCN(C(=O)COc1cc(=O)n(CC)c2ccccc12)c1cccc(Cl)c1
 : -1%[11.4 µM]	-1.8%	i	i	1e-09
#39 Cc1c(C)n(C(=O)CSc2ncn[nH]2)c2ccccc12
 : 3%	0.2%	i	i	1e-09
#40 Cc1cccc(NCN2C(=O)c3ccncc3C2=O)n1
 : -4%	-0.4%	i	i	2.3e-08
#41 CS(=O)(=O)N1CCC(C(=O)Nc2ccc(F)cc2F)CC1
 : -5%	-1.5%	i	i	2e-08
#42 CCOC(=O)c1c(C)[nH]c(C)c1C(=O)CSc1nnc(-c2ccco2)n1Cc1ccccc1
 : ?	-0.2%	i	i	4.5e-09
#43 COc1ccc(CNC(=O)C2CCCN2S(=O)(=O)c2ccc(S(=O)(=O)N(C)C)cc2)cc1 (centres undefined)
 : 4%	0.2%	i	i	6e-09
#44 Nc1n[nH]c2c1C1(CCCCC1)Cc1ccccc1-2
 : 0%	-2.3%	i	i	4.8e-08
#45 COc1ccc2cc1Oc1ccc(cc1)C[C@H]1c3cc(c(OC)cc3CCN1C)Oc1c(OC)c(OC)cc3c1[C@@H](C2)N(C)CC3
 : 1%[11.4 µM]	-2.6%[11.5 µM]	i	i	1.9e-09&1e-09&4.4e-08
#46 COC(=O)C1(C)C=CCN1C(=O)c1ccccc1 (centres undefined)
 : 3%	-3.2%	·	·	·
#47 CCOC(=O)CN(C(=O)CSc1nnc(C)n1-c1ccccc1)c1ccccc1
 : 3%	2.1%	i	i	4.8e-08
#48 NC(=O)c1ccccc1NS(=O)(=O)c1cccs1
 : -1%	2.3%	i	i	1.1e-08
#49 COC(=O)c1ccc(CSc2nc3c(c(=O)n2-c2ccc(F)cc2)SCC3)o1
 : 3.2µM*	0.6%	i	i	1e-09
#50 Cc1cn2c(nc1=O)OC1C(O)C(COC(=O)c3ccccc3)OC12 (centres undefined)
 : -2%	-1.0%	i	i	1.3e-09
#51 N#Cc1cccc(-c2cncnc2NCc2cccs2)c1
 : ?	3.8%	i	i	1e-09
#52 C=CCOc1ccc(Cl)cc1C(=O)O
 : ·	-1.5%	i	i	2.4e-09
#53 COCCCN1C(=O)C(=O)/C(=C(/O)c2ccc(OC(C)C)cc2)C1c1cccnc1 (centres undefined)
 : -6%	3.2%	i	i	3.5e-08
#54 C=CCn1c(CC(=O)OC)csc1=Nc1ccc(C(C)=O)cc1
 : ?	0.8%	i	i	1e-09
#55 COc1ccc(N(CC(=O)Nc2cccc(SC)c2)S(C)(=O)=O)cc1Cl
 : 1%	-0.2%	·	·	·
#56 Cc1ccc(N(CC(=O)N2CCN(c3ccc(F)cc3)CC2)S(=O)(=O)c2c(C)nn(C)c2C)cc1
 : -6%	-1.3%	·	·	·
#57 Cc1ccc2oc(=O)n(CCCOc3ccccc3)c2c1
 : ?	0.6%	i	i	1e-09
#58 CO[C@H]1COC(=O)[C@@H](C)COC(=O)[C@@H](OCc2ccccc2)/C=C\[C@@H]1C
 : 11%[11.4 µM]	1.2%[11.5 µM]	·	·	·
#59 CCOC(=O)Cn1cc(C(=O)OC)c2ccccc21
 : 4%	-0.2%	i	i	3.2e-09
#60 O=C(CN1CCN(C(=O)c2cccs2)CC1)NC1CCCCC1
 : 1%	-0.4%	i	i	2.1e-08

An excerpt from above in order of molecular weight, smallest number first.
Results follow in this order: TSHR agonist	AID923	Resorufin fluor	A488 autofl	A647 fluor
#46 COC(=O)C1(C)C=CCN1C(=O)c1ccccc1 (centres undefined)
 : 3%	-3.2%	·	·	·
#54 C=CCn1c(CC(=O)OC)csc1=Nc1ccc(C(C)=O)cc1
 : ?	0.8%	i	i	1e-09
#49 COC(=O)c1ccc(CSc2nc3c(c(=O)n2-c2ccc(F)cc2)SCC3)o1
 : 3.2µM*	0.6%	i	i	1e-09

The listing continues.
Results follow in this order: TSHR agonist	AID923	Resorufin fluor	A488 autofl	A647 fluor
#61 CCCCC(=O)Nc1cccc2c1C(=O)N(c1ccccc1)C2=O
 : 7%	-1.6%	·	·	·
#62 CN(CC(=O)NCC1CCCO1)S(=O)(=O)c1cc(Cl)ccc1Cl (centres undefined)
 : -3%	-1.5%	i	i	3.1e-09
#63 Cc1nc2ccccc2c(=O)n1NC(=O)Nc1ccccc1
 : 1%	-0.4%	i	i	7.8e-09
#64 O=C(NCc1ccco1)c1ccc2c(=O)n(CC3CCCO3)c(=S)[nH]c2c1 (centres undefined)
 : -4%	-0.7%	i	i	1e-09
#65 CCOc1cc(C)c(Cl)cc1S(=O)(=O)N(CC)CC
 : 7%	0.1%	i	i	8e-09
#66 COc1ccc(C(=O)CN2C3=NCCCN3c3ccccc32)cc1OC
 : 18%	-2.6%	·	·	·
#67 CC(C)[C@H](NC(=O)OCc1ccccc1)C(=O)N[C@H](C=O)Cc1ccccc1
 : -2%	-2.3%	i	i	2.5e-08
#68 CC(N=c1ccccn1C(=O)Nc1ccc(Cl)cc1)c1ccco1 (centres undefined)
 : 2%	0.0%	i	i	1.6e-08
#69 Cc1ccccc1CSc1nnc(C)n1N
 : 2%	-2.1%	i	i	1e-09
#70 CCN1CCN(Cc2ccc(NC(=O)Nc3ccc(SC)cc3)cc2)CC1
 : 7%	-0.4%	i	i	1e-09
#71 N#CCCN1CCN(S(=O)(=O)c2ccc(S(=O)(=O)N3CCOCC3)cc2)CC1
 : -17%	0.9%	·	·	·
#72 CS(=O)(=O)N1CCCC(C(=O)N2CCOCC2)C1 (centres undefined)
 : 2%	0.1%	i	i	1e-09
#73 Cc1ccc(CC2CC(=O)N(CCc3ccc4c(c3)OCO4)C2=O)cc1 (centres undefined)
 : ?	-0.7%	·	·	·
#74 CC1CCN(S(=O)(=O)c2ccc(NC(=O)CSc3ncccc3C(=O)O)cc2)CC1
 : -3%	-4.6%	i	i	3.2e-08
#75 CN[C@@H]1[C@H](O[C@H]2[C@@H](O[C@@H]3[C@@H](O)[C@@H](O)[C@@H](N=C(N)N)[C@@H](O)[C@@H]3N=C(N)N)O[C@@H](C)[C@]2(O)CO)O[C@H](CO)[C@@H](O)[C@@H]1O
 : -27%[25.6 µM]	-1.8%[25.7 µM]	i	i	4.2e-08
#76 COc1ccccc1CN1CCC2(CC1)CCN(C(=O)c1cc(C(F)(F)F)cc(C(F)(F)F)c1)CC2
 : ·	0.9%	i	i	5.2e-09

Part of the list above, with each value named:
#66 COc1ccc(C(=O)CN2C3=NCCCN3c3ccccc32)cc1OC
  TSHR agonist: 18%
  AID923: -2.6%
  Resorufin fluor: ·
  A488 autofl: ·
  A647 fluor: ·
#70 CCN1CCN(Cc2ccc(NC(=O)Nc3ccc(SC)cc3)cc2)CC1
  TSHR agonist: 7%
  AID923: -0.4%
  Resorufin fluor: i
  A488 autofl: i
  A647 fluor: 1e-09

Not all compounds are listed; count on the stated rates, not on these rows.
